Source: PubChem (National Center for Advancing Translational Sciences (NCATS))
Six1-Eya2 inh – Six1/Eya2 interaction inhibition | AlphaScreen GST-Six1/His-Eya2 binding, biochemical; active compounds read low; control for the full effect not named in the record | AID 651725 | Q15475+O00167 | hit rate 0.56% among 360,000 | activity change, % (concentration not given with the values); in the data active = activity change below about -65%; inconclusive = about -30% to -65%; inactive = above about -30%; also: % is scaled to controls: 0 for no effect and ±100 for the full control effect
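AlphaScreen with GST-Six1 and His-Eya2 (5X mix: 250 nM and 500 nM), glutathione donor and nickel acceptor beads; buffer 50 mM Tris pH 8.0, 300 mM NaCl, 1 mM TCEP; 1 h at 37 C in the dark.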
D2 ag – activates the human D2 dopamine receptor. P14416. DiscoveRx PathHunter D2 beta-arrestin, luminescence, 90 min; 100% = 57 uM dopamine signal. activation, % (concentration not given with the values). hit rate 0.084% among 360,000; in the data active = activation above about 40%; inconclusive = about 15% to 40%; inactive = below about 15%; also: compound concentration not given in the record; the text of the record calls up to 30% inactive
Target sequence (P14416 whole entry, looked up): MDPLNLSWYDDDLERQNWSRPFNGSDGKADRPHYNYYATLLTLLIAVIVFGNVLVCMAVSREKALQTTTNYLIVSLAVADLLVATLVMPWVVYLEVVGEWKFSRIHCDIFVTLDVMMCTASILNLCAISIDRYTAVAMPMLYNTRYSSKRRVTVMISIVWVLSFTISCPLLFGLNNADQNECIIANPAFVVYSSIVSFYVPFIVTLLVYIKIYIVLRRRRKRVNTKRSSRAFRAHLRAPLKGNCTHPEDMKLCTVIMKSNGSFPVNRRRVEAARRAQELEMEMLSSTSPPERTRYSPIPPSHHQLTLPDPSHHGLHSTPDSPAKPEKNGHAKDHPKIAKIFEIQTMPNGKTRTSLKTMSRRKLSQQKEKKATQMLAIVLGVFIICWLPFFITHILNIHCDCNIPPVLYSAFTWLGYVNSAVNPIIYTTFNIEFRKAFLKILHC
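Agonist mode: compounds alone added to overnight-plated D2 PathHunter cells for 90 min at 37 C, with 57 uM final dopamine (EC100) defining full response. Beta-arrestin recruitment detected by chemiluminescent reagent, read after 1 h at ambient temperature.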
CtBP-E1A blk – blocks the CtBP interaction with E1A | activity change, % (test concentration not listed) | AID 651724 | AlphaScreen GST-E1A/His-CtBP binding, 1536-well; active compounds read low; control for the full effect not named in the record | hit rate 0.49% among 340,000; in the data active means activity change below about -65%; inconclusive means about -30% to -65%; inactive means above about -30%; also: % is scaled to controls: 0 for no effect and ±100 for the full control effect
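GST-E1A and His-tagged CtBP (125 nM each as 5X stock) were preincubated with pin-transferred compound for 2 h at 37 °C in the dark, then glutathione donor and nickel acceptor beads were added for 1 h before AlphaScreen reading.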
PINK1 modulator – changes PINK1 expression. hit rate 0.2% among 410,000. Potency, µM (series often up to 76.6 µM), for inactives: at the top dose activation (PINK1 increase), most hits filed as activators. PINK1 immunofluorescence, high-content cytometry, 24 h. AID 624263; active = well fitted activation curve with a large enough effect; inconclusive = small, poorly fitted or top-dose-only effect; inactive = flat fitted curve, though single readings scatter; cell line not stated here;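 also: potency is read from the fitted curve at half-maximal effect; % of control where 0% means no effect; nearly all actives have a fitted effect of over 65% in size; a mitochondrial uncoupler was the plate control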
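Measures PINK1 amount and localization on or inside mitochondria by immunofluorescence. Stable cells get compounds at 5 concentrations for 24 hours before fixation and staining; CCCP controls included.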
TRPML1 ag – agonists of human TRPML1 channel; Q9GZU1; TRPML1-expressing cells, Ca2+ dye fluorescence, FDSS; host cell line not named in the record; reference of the full effect not given here; activation, % (concentration not given with the values); hit rate 0.12% among 410,000; AID 624414; in the data active = activation above about 50%; inconclusive = about 30% to 50%; inactive = below about 30%; also: 0% is about no effect; the text of the record puts the active cut at 80%
Target sequence (Q9GZU1 whole entry, looked up): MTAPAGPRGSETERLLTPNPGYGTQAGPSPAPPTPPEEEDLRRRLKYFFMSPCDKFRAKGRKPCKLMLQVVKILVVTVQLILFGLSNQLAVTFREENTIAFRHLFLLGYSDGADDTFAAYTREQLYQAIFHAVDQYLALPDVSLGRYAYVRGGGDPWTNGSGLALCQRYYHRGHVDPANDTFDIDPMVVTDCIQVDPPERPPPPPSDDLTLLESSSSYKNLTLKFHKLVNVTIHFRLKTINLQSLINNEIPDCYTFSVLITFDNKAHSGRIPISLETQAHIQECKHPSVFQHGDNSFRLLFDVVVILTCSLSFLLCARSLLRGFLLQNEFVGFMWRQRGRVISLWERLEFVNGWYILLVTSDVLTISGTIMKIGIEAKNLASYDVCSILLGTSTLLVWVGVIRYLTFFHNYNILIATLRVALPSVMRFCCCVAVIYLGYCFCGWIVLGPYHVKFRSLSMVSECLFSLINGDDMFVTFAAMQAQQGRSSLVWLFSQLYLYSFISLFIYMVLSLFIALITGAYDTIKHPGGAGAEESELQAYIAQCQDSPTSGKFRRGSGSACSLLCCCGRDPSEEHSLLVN
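In this qHTS format, compounds were pin-transferred onto Ca8-dye-loaded TRPML1-DL cells induced with Tet overnight, and intracellular Ca2+ fluorescence was recorded kinetically for 110 s after a 10 s baseline. A subsequent 4uM final 54-4 (EC80) addition followed by a second 110 s read served as the antagonist phase.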
TRPML1 blocker – inhibitors of human TRPML1 channel; activity change, negative = inhibition, % (concentration not given with the values); hit rate 0.02% among 390,000; TRPML1-inducible cells, Ca2+ dye fluorescence, FDSS; active compounds read low; inhibition of EC80 agonist-evoked calcium signal; AID 624415; in the data active means activity change below about -50%; inconclusive means about -30% to -50%; inactive means above about -30%;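 also: stimulus is agonist 54-4 at its EC80 concentration; % is scaled to controls: 0 for no effect and ±100 for the full control effect; the text of the record puts the active cut at -80%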
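TRPML1-DL cells, Tet-induced overnight (~16 h, 37 °C) at 1,500 cells/well, were loaded with Ca8 no-wash dye plus quencher for 45-90 min at room temperature. Compounds were pinned during FDSS kinetic reading; agonist 54-4 at EC80 (4 uM final) then added.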
An asterisk follows results filed as active; u = inconclusive; x = no result given; [ ] = remark or other dose. Compounds as they come; overall some 1% were active at least once.

SMILES | Six1-Eya2 inh | D2 ag | CtBP-E1A blk | PINK1 modulator | TRPML1 ag | TRPML1 blocker
CCn1c(SCC(=O)Nc2ncc(C(F)(F)F)cc2Cl)nnc1-c1ccccc1 | -3.4 | -1.6 | x | 3.3% | 2.1 | -0.6
Cc1nn(C(C)C(=O)Nc2ccccc2Cl)c(=O)c2nn(-c3ccccc3)c(C)c12 (centres undefined) | -1.3 | -3.9 | -7.9 | 0.6% | 0.4 | 17.9
O=C(Nc1ccc(Cl)cc1)C1=Cc2cc(Cl)ccc2OC1 | 12.5 | 0.9 | 11.5 | 6.5% | 4.1 | 25.2
C=C(C)CSc1nnc(CCNC(=O)OC(C)(C)C)o1 | -1.7 | -2.8 | 2.9 | 6.1%[38.3 µM] | 1.7 | -14.0
CCOc1ccc(CN2C(=O)c3ccccc3Sc3ccc(C(=O)NCc4ccc(C)cc4)cc32)cc1 | x | x | x | 1.2% | 2.3 | 6.9
O=[N+]([O-])c1cccc(C2(O)COc3ccccc3O2)c1 (centres undefined) | -19.8 | -2.7 | -15.8 | 1.4% | -0.4 | 5.7
COc1ccc([N+](=O)[O-])cc1NS(=O)(=O)c1ccc(C)cc1 | 0.1 | -6.1 | x | 1.2% | 3.4 | 8.2
COCCNC(=O)c1cc(-c2ccncc2)nc2ccc(S(=O)(=O)N3CCOCC3)cc12 | 2.4 | 1.5 | x | -2.1% | 0.3 | 32.6
O=C(Nc1ccc(S(=O)(=O)Nc2ccnn2-c2ccccc2)cc1)C(F)(F)F | 10.4 | -0.7 | 20.0 | 2.1% | -0.6 | -4.1
CCOC(=O)CN1NC2(CCCC(C)C2)NC1=S (centres undefined) | 2.8 | -0.8 | 1.4 | 4.5% | -0.7 | -4.5
CSCCC(C(=O)Nc1c(C)cccc1C)N(C)CCc1ccccc1 (centres undefined) | -10.7 | -4.7 | -2.9 | 0.4% | 1.4 | -10.0
O=C(Cc1cccs1)Nc1nnc(SCc2ccc(C(F)(F)F)cc2)s1 | 11.9 | 1.6 | 15.7 | 9.6% | -0.1 | 1.9
CC(=O)[C@@H]1[C@@H]2C(=O)N(Cc3ccccc3)C(=O)[C@@H]2C2c3ccccc3C=CN21 (some centres undefined) | 4.9 | -0.2 | -0.9 | 11.2µM* | 3.3 | -3.5
O=C(CN1CCCCC1)Nc1ccccc1Cl | 7.0 | 4.0 | 9.0 | 0.7% | 2.2 | 13.5
COc1ccc(-c2ocnc2C(=O)Nc2ccccc2N2CCCCC2)cc1 | 0.0 | 0.3 | 0.0 | 8.2% | 2.8 | -2.7
Cc1ccccc1C(=O)NCC(=O)N1CCN(C/C=C/c2ccccc2)CC1 | -1.5 | -3.1 | 3.2 | -0.1% | -0.3 | -7.4
CC(=O)Nc1ccc(S(=O)(=O)N2C(C)CCCC2C)cc1 (centres undefined) | -1.3 | 1.5 | 2.9 | -2.9% | 1.1 | 7.3
Cn1c(SCC(=O)Nc2ccc(N3CCOCC3)c(Cl)c2)nnc1-c1ccccc1 | -0.9 | 1.5 | -6.5 | 11.3%[38.3 µM] | 0.0 | 2.9
COc1ccc(N2C(=O)CC(N(CCc3ccccc3)C(=O)c3ccccc3)C2=O)cc1 (centres undefined) | 0.9 | -4.2 | -69.6* | 0.8% | 0.3 | 19.2
Cc1ccc(NC(=O)C(=O)N2CCCC2)cc1Cl | -3.0 | -0.7 | 12.5 | 0.9% | 0.8 | 12.2
COc1ccc(/C=N/Nc2nncn2N)cc1Br | -74.9* | u | u | 3.7% | -1.3 | -5.2
Cc1cccc(Oc2coc3cc(OC(=O)c4cncc(Br)c4)ccc3c2=O)c1 | 10.5 | -0.4 | 6.8 | 0.9% | 1.2 | 18.9
Cc1nc(Cl)c2c(n1)NC(=O)CO2 | 8.1 | -0.7 | x | 1.2% | -0.1 | -17.1
O=C(OCc1ccccc1Cl)c1ccc(-c2nnn(Cc3ccc(F)cc3)n2)cc1 | x | x | x | -0.2% | 3.0 | -20.4
CN(C(=O)c1ccc(Br)o1)C1CCCCC1 | 0.1 | -0.5 | 0.1 | -0.6% | -0.4 | -5.8
COC(=O)c1ccc(Cl)cc1NC(=O)N1CC2CCCN2c2ccccc21 (centres undefined) | x | x | x | 6.7% | -0.5 | 4.1
Nc1nc(SCC(=O)OCc2ccccc2)[nH]c(=O)c1NC(=O)c1ccco1 | -1.8 | 0.6 | -6.8 | -0.9% | 0.2 | 30.1
CC(=O)Nc1ccc(C(=O)N2CCN(C(=O)c3ccco3)CC2)cc1 | 3.0 | -2.5 | 6.7 | -2.8%[38.3 µM] | 0.8 | 4.1
CCCCOCCCNC(=O)C[C@@H]1C[C@@]2(C(=O)OCC)CCCC=C2N(Cc2cccc3ccccc23)C1=O | -12.9 | x | -1.2 | 22.7% | 0.2 | x
COc1ccc(C)cc1NC(=O)NNC(=O)C(C)Oc1ccc(F)cc1Cl (centres undefined) | -11.4 | -3.0 | -1.7 | 1.8% | -0.4 | 2.9
CCCn1nc(NC(=O)C(C)(C)C)c2cc3cc(OC)ccc3nc21 | 20.0 | 5.5 | 6.7 | 8.7% | 2.4 | -19.1
O=C(O)c1ccc(C=NNC(=O)c2ccccc2NS(=O)(=O)c2cccs2)cc1 | 12.4 | 0.1 | -4.8 | 1.6% | -0.3 | -5.9
CCOC(=O)Cn1c(=O)oc2cc(S(=O)(=O)N3CCC(N4CCCCC4)CC3)ccc21 | 12.9 | -7.2 | 5.2 | -1.4% | -0.4 | 17.9
O=C(O)c1ccc2c(=O)n(-c3ccc(F)cc3)c(=S)[nH]c2c1 | 4.4 | -3.2 | 2.1 | 2.9% | x | x
O=C(CN1CCN(c2nc(-c3ccccc3)cs2)CC1)NNC(=O)c1ccc(Br)cc1 | -2.1 | 0.0 | 6.6 | 1.5%[38.3 µM] | 0.1 | 16.0
N#Cc1cc(N)ccc1Sc1ccc(Cl)cc1 | 10.1 | -3.1 | 6.7 | 7.2% | 3.1 | 12.3
O=c1[nH]c(=O)n(-c2ccc(F)cc2)c2c1C(C(F)(F)F)(C(F)(F)F)N=C(c1ccc(F)cc1)N2 | 1.9 | 6.5 | 9.8 | 10µM* | 0.6 | -6.9
CC1CC(=O)Nc2ccccc2N1S(=O)(=O)c1ccc(Br)cc1 (centres undefined) | -0.6 | -1.1 | 5.4 | -0.5% | -0.8 | -8.1
O=C(Cn1c(=O)n(CC(=O)N2CCCCC2)c(=O)c2sccc21)NCc1ccccc1 | 0.1 | -0.3 | 0.1 | -0.4% | -0.5 | 15.0
CC1Cc2cc(/C(O)=C3/C(=O)C(=O)N(CCN4CCOCC4)C3c3cccc(Cl)c3)ccc2O1 (centres undefined) | 4.4 | -3.1 | -1.9 | -1.3% | 3.4 | 28.7
Cc1cc(C)c2c(n1)nn1c(-n3ccnc3)cc(C)nc21 | u | 1.1 | u | -1.5% | -0.4 | 6.4
COc1cccc(CN(C(=O)c2cnccn2)C(C(=O)NC2CCCCC2)c2cc(OC)c(OC)c(OC)c2)c1 (centres undefined) | -5.7 | -1.7 | -12.7 | -0.4% | 0.2 | -3.0
COC(=O)c1ccccc1NC(=O)Cn1c(CCC(=O)O)ccc1-c1ccc(C)cc1 | x | x | x | -1.4% | 2.3 | 14.0
Cc1nn(CC(=O)Nc2ccc3c(c2)nc2n3CCN(C3CCCCC3)C2)c(=O)c2ccccc12 | -0.2 | -1.9 | -5.9 | 1.1% | -0.9 | 41.8
COc1ccc(N2Cc3ccccc3/C2=N\C(=O)Nc2ccccc2)cc1 | -3.8 | 1.0 | -2.0 | -1.9% | 0.1 | -0.9
Cc1ccc(-c2c(CN3CCN(c4cc(C)ccc4C)CC3)csc2C)cc1 | x | x | x | 5.1% | 2.6 | -1.2
CCCC(C)NC(=O)COc1ccc(Sc2ccc(OCC(=O)NC(C)CCC)cc2)cc1 (centres undefined) | 0.7 | -7.0 | -22.8 | 2.3% | 0.1 | -12.7
Cn1c(CSCc2ccccc2)nnc1SCC(=O)Nc1ccc(C(=O)O)cc1 | 2.6 | -2.3 | 6.5 | -0.9% | 0.7 | -8.7
CCCn1nc(C(=O)Nc2ccc3c(c2)OCCO3)c2ccccc2c1=O | -8.7 | -3.5 | 6.0 | 1.9% | 1.2 | 7.5
Cc1csc(Nc2ccc(Cl)cc2)[n+]1-c1ccc(Cl)cc1 | -29.6 | -4.6 | 16.8 | u | 1.4 | 4.3
Nc1nnnn1N=C1CCCCC1 | -1.9 | -2.3 | 6.9 | 1.2% | -0.3 | -4.4
COc1ccc(OC)c(NS(=O)(=O)c2ccc(N3CCCC3=O)cc2)c1 | 3.2 | 1.8 | 6.2 | 12.7% | 0.3 | -10.8
CCC(C)c1ccc(NS(=O)(=O)c2c(C)[nH]c(=O)[nH]c2=O)cc1 (centres undefined) | -1.9 | -5.1 | 4.4 | 4.9% | x | x
CN(CCc1ccccn1)C(=O)Nc1cc(Cl)cc(Cl)c1 | 0.6 | -7.3 | -19.2 | 1.6% | 1.1 | 10.0
COc1ccc(C(CNC(=O)C(C)(C)Oc2ccc(Cl)cc2)N2CCCCC2)cc1 (centres undefined) | -4.0 | -2.9 | -1.9 | 8.4% | 0.3 | -28.2
CCOC(=O)c1cc2ccccc2n1CCN(CC)CC | -9.5 | -2.3 | 0.2 | 12.6%[38.3 µM] | 0.4 | -8.4
CCOC(=O)C(NC(C)=O)(OCc1ccccc1)C(F)(F)F (centres undefined) | 0.3 | 1.0 | -1.6 | 1.6% | -0.1 | -10.4
O=C(CSCc1ccccc1)Nc1ccc(F)cc1F | 2.2 | -1.3 | 10.8 | 0.3% | 1.2 | 10.0
CN1CCN(C2CCN(S(=O)(=O)c3ccc(C(C)(C)C)cc3)CC2)CC1 | 16.7 | -4.4 | -1.9 | 0.6% | 0.1 | -14.2
O=C(COC(=O)c1cccc([N+](=O)[O-])c1)Nc1ccc(Cl)cn1 | 3.5 | 1.1 | -1.2 | 1.0% | 0.6 | 20.3

Additional entries.
SMILES | Six1-Eya2 inh | D2 ag | CtBP-E1A blk | PINK1 modulator | TRPML1 ag | TRPML1 blocker
CCCCN(C(=O)c1cccc(S(=O)(=O)N2CCCC2)c1)c1c(N)n(CCC)c(=O)[nH]c1=O | 17.0 | -3.8 | -1.3 | -1.6% | -0.1 | 4.6
Cc1cc(Br)ccc1NC(=O)CN(C)C(=O)CSCc1ccccc1 | 13.6 | -6.9 | -1.5 | -1.4% | 1.1 | -19.1
COc1cccc(CC2(CO)CCCN(Cc3c(C)cc(C)cc3-n3cccn3)C2)c1 (centres undefined) | -4.6 | -3.9 | x | 2.3% | 2.4 | 1.5
O=C1NC(c2ccc3ccccc3c2)Nc2ccccc21 (centres undefined) | 0.6 | -3.5 | 2.3 | 7.6% | -0.8 | -9.1

Reprinted at random: 2 entries already listed, in no set order.
SMILES | Six1-Eya2 inh | D2 ag | CtBP-E1A blk | PINK1 modulator | TRPML1 ag | TRPML1 blocker
CCCCN(C(=O)c1cccc(S(=O)(=O)N2CCCC2)c1)c1c(N)n(CCC)c(=O)[nH]c1=O | 17.0 | -3.8 | -1.3 | -1.6% | -0.1 | 4.6
Cc1cc(Br)ccc1NC(=O)CN(C)C(=O)CSCc1ccccc1 | 13.6 | -6.9 | -1.5 | -1.4% | 1.1 | -19.1
